Screens from PubChem.
NPYLR7 ag – mosquito NPYLR7 agonism | activation, % at 10 µM | HEK293T NPYLR7/Galpha15, GCaMP6s calcium fluorescence | 270,000 compounds, 0.15% hits; in the data active = activation above about 40%;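 note: 0% = vehicle and 100% = reference agonist at the receptor; some compounds past the cut are filed as inactive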
NPYLR7 ag max-min – further read-out of NPYLR7 ag, marked with its call; activation, %; measured here: Max-Min RFU normalised activation; some inactives read as strong as hits;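 span of the calcium signal over five minutes; 0% = vehicle and 100% = native peptide agonist; compound fluorescence can raise it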
Starred values were filed as active, the others as inactive; & = joins results of further samples.

SMILES	NPYLR7 ag	NPYLR7 ag max-min
CCSc1ccc(-c2sc(-c3cccs3)nc2C)nn1	-3	-15
COC(=O)Cn1c(C)nc(=O)c(-c2ccccc2)c1C	-3	-4
Cc1cc2cc(C(=O)N3CCCC(CNC(=O)c4cc5ccccc5[nH]4)C3)ccc2o1 (stereo not given)	13	-1
CCOC(=O)C1=C(C)NC(C)=C(C(=O)OCC)C1C(=O)OCC(=O)N1CCCC1=O	3	4
O=C(c1cn(Cc2ccccc2Cl)nn1)N1CCOCC1	14	8
CCc1cn[nH]c1C1CCN(C(=O)c2cn(CC3CCCNC3)nn2)CC1 (stereo not given)	8	7
CC(=O)Nc1cccc(NC(=O)CSc2nc(=O)n(CCN(C)C)c3c2CCC3)c1	0	-4
Cc1ccc(S(=O)(=O)N2CCCc3cc(NC(=O)C4CCCCC4)ccc32)cc1	4	3
OCc1cc2ccccc2nc1-c1ccc(-c2ccn[nH]2)cc1	-3	-3
COP(=O)(OC)C1(O)C2CCCC1C(c1ccccc1)NC2c1ccccc1 (stereo not given)	-3	2
OCC(O)/C=N\Nc1nc(Nc2ccccc2)nc(N2CCCCC2)n1 (stereo not given)	-8	-10
COc1ccc(CCOC(=O)C2CCCCN2C(=O)c2ccccc2C(F)(F)F)cc1OC (stereo not given)	-8	-16
Cc1cccc(C)c1OCCN(C1CC1)S(=O)(=O)c1ccc(C#N)cc1	12	6
CC(=O)COc1ncnc2c1cnn2-c1cc(C)cc(C)c1	11	4
O=C(NCCN1CCCOC1=O)c1cccc2ccnn12	1	-5

Whole records, quoted from the list. Values in the order: NPYLR7 ag	NPYLR7 ag max-min
Record of `CCSc1ccc(-c2sc(-c3cccs3)nc2C)nn1` → -3	-15
Record of `Cc1cccc(C)c1OCCN(C1CC1)S(=O)(=O)c1ccc(C#N)cc1` → 12	6
Record of `CCOC(=O)C1=C(C)NC(C)=C(C(=O)OCC)C1C(=O)OCC(=O)N1CCCC1=O` → 3	4
Record of `COP(=O)(OC)C1(O)C2CCCC1C(c1ccccc1)NC2c1ccccc1` (stereo not given) → -3	2

Additional entries follow:
SMILES	NPYLR7 ag	NPYLR7 ag max-min
CCC(=O)N1CCCC1(C)C(=O)Nc1nccc2ccccc12 (stereo not given)	5	1
COc1cccc(C(=O)N2CCN(C(C(=O)NC3CCCc4ccccc43)C3CCCC3)CC2)c1 (stereo not given)	-5	-8
Cc1ccc2nc(C)c(NC(=O)c3ccc(S(=O)(=O)N4CCCCC4)cc3)c(=O)n2c1	-4	-3
COc1ccc(NC(=O)CNC(=O)CN(C(=O)c2cccc(OC)c2)C2CCCCC2)cc1	-12	-13
NS(=O)(=O)c1ccc(C(=O)NCCn2ncccc2=O)cc1	5	1
O=S(=O)(c1ccc(O)cc1)c1ccc(Cl)cc1	10&2	4&4
CCCN1C(=O)C2C(c3ccc(O)cc3)NN(Cc3ccccc3)C2C1=O (stereo not given)	-10	-14
COc1ccc(C)cc1NC(=O)C(C)Oc1ccc2ccc(=O)oc2c1 (stereo not given)	-5	-7
COc1ccc(-c2c(C)n([O-])c3c([n+]2=O)CCCC3)c(OC)c1	-7	-11
COCC(C)n1c(C)cc(C(=O)Cn2cnc3c2c(=O)n(C)c(=O)n3C)c1C (stereo not given)	-1	3
O=S(=O)(c1ccc2cccc3c2c1CC3)N1CCCCC1	4	1
COc1ccc(CN2CC(=O)N(c3ccccc3SC)C(C)C2)cc1O (stereo not given)	1	1
COCCCN(Cc1cccn1Cc1ccccc1Cl)C(=O)Nc1ccc(C)c(Cl)c1	-5	2
Cc1cc(Oc2ccc(Cl)c(C)c2)nc(SCc2ccc(C(F)(F)F)cc2)n1	19	18
Fc1cccc(CN2CCN(Cc3cccc(Cn4cccn4)c3)CC2)c1	6	4

Reformatted with values under each structure: 2 of the compounds above
Fields – NPYLR7 ag | NPYLR7 ag max-min
> COc1ccc(NC(=O)CNC(=O)CN(C(=O)c2cccc(OC)c2)C2CCCCC2)cc1
→ -12 | -13
> NS(=O)(=O)c1ccc(C(=O)NCCn2ncccc2=O)cc1
→ 5 | 1

Next section
SMILES	NPYLR7 ag	NPYLR7 ag max-min
CCc1nc2c(OCc3cccc(Cl)c3)cccn2c1N(C)C(=O)c1ccc(C)cc1	5	14
CCc1csc(CNC(=O)c2ccc(=O)[nH]c2)n1	-4	-2
CC(Oc1ccccc1)C(=O)N1CCC(c2nc(-c3ccc(Cl)cc3)no2)CC1 (stereo not given)	4	-2
C=CCn1cnc2c(nnn2-c2ccc(OC)c(OC)c2)c1=O	-3	-6
O=c1[nH]c(=S)[nH]c(O)c1N=Nc1ccc(F)cc1	3	7
O=C(CN1CCCCCC1=O)NC1CCOc2ccccc21 (stereo not given)	10	4
Cc1ccc(C(=O)NCCn2cc(SCC(N)=O)c3ccccc32)cc1	16	12
Nc1nc(SCC(=O)NCC2CCCO2)[nH]c(=O)c1NC(=O)c1ccc(F)cc1 (stereo not given)	-4	-11
O=C(CC(c1ccc(OCc2ccccc2)cc1)c1c[nH]c2ccccc12)NCCN1CCOCC1 (stereo not given)	9	6
O=C(c1ccc(F)cc1)N1CCN(C(c2ccc(Cl)cc2)c2ccc(Cl)cc2)CC1	13	4
COC(=O)c1ccc(-c2nc(CN(C)C3CCCc4ccccc43)c(C)o2)cc1 (stereo not given)	3	-2
O=C(NC1CCCc2nccnc21)c1cn[nH]n1 (stereo not given)	3	-1
COc1ccc2cc(CCNC(=O)C(C)Oc3ccccc3)c(=O)[nH]c2c1 (stereo not given)	3	12
CSCc1cccc(C(=O)NCc2ccccn2)c1	6	2
O=C(N[C@@H]1CCCCC1NC(=O)C1CCN(C(=O)CCc2ccccc2)CC1)c1ccccc1 (stereo not given in full)	3	13
CN(CC(=O)N[C@@H]1CC[C@@H](N)C1)Cc1ccccn1	-4	-10
C(=C\c1ccccc1)/CSc1nnc(-c2cccnc2)o1	-1	1
CC(c1nc(N)nc(N(C)C)n1)N1CCSC(c2ccccc2)C1 (stereo not given)	-3&-1	-2&7
CCc1c(C)nc2c(-c3ccccc3)c(C)nn2c1N1CCCC1	-2	3
COc1ccc(S(=O)(=O)NCCCN2CCOCC2)cc1N1CCN(C(=O)c2cc3ccccc3s2)CC1	11	8
C=c1ccccc1=c1[nH]/c(=C/c2cc(Br)ccc2OC)c(=O)o1	-1	-3
COc1cc(OC)c(C2CC(c3ccc(Cl)cc3)=Nc3ncnn32)cc1OC (stereo not given)	5	5
CN(C)CCN(Cc1nccn1Cc1ccccc1C(F)(F)F)C(=O)c1cccc(F)c1	4	10
CN(C)C(CNC(=O)C1CCCc2ccccc21)c1ccccc1 (stereo not given)	4	2
O=C(c1ccccc1N1CCC(NS(=O)(=O)c2ccc(Cl)cc2)CC1)N1CCN(C2CCCC2)CC1	2	8
CCCN(C)CC1CCN(C(=O)Nc2cccc3cccnc23)C1 (stereo not given)	0&-1	17&-2
Cc1cc(C)c2c(c1C(=O)NCCn1c([N+](=O)[O-])cnc1C)CC(C)(C)C2=O	6	0
Cc1noc(C2CN(C(=O)c3cc(-c4ccc(F)cc4)nn3C)C2)n1	1	-1
CCC1(C)NC(=O)N(Nc2ncnc3sc4c(c23)CCC4)C1=O (stereo not given)	-2	-5
COc1ccccc1C(=O)N(CC(=O)N1CCc2sccc2C1COc1ccc(Cl)c(C)c1)Cc1ccco1 (stereo not given)	-3	2
Cc1cc(C(=O)Nc2ccn(CCC#N)n2)nn1-c1ccccc1	8	6
C=CCOc1ccccc1C1CC(=O)Nc2c1c(C)nn2-c1ccc2nncn2n1 (stereo not given)	0	-2
CNc1nc(-c2ccc(N3CCCC3=O)cc2)cs1	-9	-9
O=C(C1CCCC1)N(CCN1CCOCC1)Cc1nccn1Cc1ccc(F)cc1	6	14
CCn1cc(CN(C)C2CCCN(CCc3ccccc3)C2)c(C)n1 (stereo not given)	15	8
CC(C)c1cc(C(=O)Nc2ccccc2)c2cnn(C(C)C)c2n1	8	7
Cc1ccc(OCC(=O)Nc2nnc(C)s2)cc1	0	-1
O=C(NC1=NCCS1)c1cn(Cc2cccc(F)c2)nc1OCc1cccc(F)c1	15	6
COc1ccccc1Cn1c(C)c(C(=O)NCc2cccc(Cl)c2)sc1=O	9	9
C#CCNC(=O)c1sc(-c2ccccc2)cc1OC	13	7
CCOC(=O)CC1CCCCN1Cc1nc(-c2ccc(OC)c(C)c2C)oc1C (stereo not given)	9&-10	13&-15
COCCCNCc1nc2sc(C(C)C)cc2c(=O)[nH]1	2	5
Cc1ccc(NC(=O)CCCn2nc(-c3ccccc3)ccc2=O)c(C)c1	0	2
CC1c2ccsc2CCN1S(=O)(=O)c1ccc([N+](=O)[O-])cc1 (stereo not given)	6	8
CCn1cncc1CNC(=O)c1sc(C)nc1-c1ccccc1	3	0
O=C(NC(Cc1ccccc1)C(=O)Nc1nnc(-c2cccc(Cl)c2)s1)c1ccc(F)cc1 (stereo not given)	-4	-3
O=C(Nc1cccc(F)c1)c1cccc(S(=O)(=O)N2CCCCCC2)c1	-5	-9
Cc1ccc(-c2ccc(C(=O)NCCCc3nn[nH]n3)cc2)o1	4	1
COc1ccc(C2c3ccsc3CCN2C(=O)c2ccc(C(F)(F)F)cc2)cc1 (stereo not given)	20	20
O=C(c1cc(-c2ccccc2F)nc2cc(-c3ccccc3)nn12)N1CCOCC1	7	8
Cc1cc(F)ccc1C(O)c1ncc(-c2ccccc2F)[nH]1 (stereo not given)	-1	-3
Cc1ccc(C2(CN3CCCC(Cn4ccnc4)C3)CCNCC2)nc1 (stereo not given)	18	5
COc1cc2c(cc1OC)C(c1c(F)cccc1Cl)N(C(=O)c1cc(C)oc1C)CC2 (stereo not given)	18	7
COc1ccc2c(c1)[C@]1(CO)CN(Cc3ccc(C(=O)O)cc3)C[C@@H]1C(C)(C)CO2	2	-1
Cc1ccc(CNC(=O)c2c(C)noc2-c2cccc(C(F)(F)F)c2)o1	3	3
COc1cccc(NC(=O)NC2CC(=O)N(CC3CCCCC3)C2)c1 (stereo not given)	7	6
O=C(NCc1ccccc1Cl)C1=NS(=O)(=O)c2ccccc2N1	3	12
Cc1ccc(C(=O)NC(c2ccc(F)cc2)C(C)C)cn1 (stereo not given)	1	-2
Cc1nc(SCc2ccc(C(=O)NCC3CC3)cc2)nc(N(C)Cc2ccccc2)c1C	-5	-1
Cc1ccsc1C=NN1CCOCC1	-3	-7
Following part:
SMILES	NPYLR7 ag	NPYLR7 ag max-min
NC(=S)NN1C(=O)C2CC=CCC2C1=O (stereo not given)	6	15
CC1CCc2c(sc3nc(CCN4CCN(c5ccccn5)CC4)nc(N)c23)C1 (stereo not given)	-3	-3
Cc1cccc(-c2nc(CN(CC3CCCO3)CC3CCCO3)no2)c1 (stereo not given)	-1	-2
Cc1ccc(C(O)c2ncc(-c3ccccc3C(F)(F)F)[nH]2)cc1 (stereo not given)	-2	-3
COc1cc(Br)c(C=CC(=O)c2cccc(N3CCCC3=O)c2)cc1OC	-3	-2
COc1nn(C)cc1C(=O)NCC1CCCO1 (stereo not given)	2	4
Cc1nnc(SCc2ccccc2F)c(C(N)=O)c1C	7	5
O=C(COc1ccc2ccccc2c1)NCCc1nc2ccccc2[nH]1	6	7
CNC(=O)c1csc(-c2snnc2C)n1	4	3
COc1ccc(C2CC(c3ccc(OC)c(OC)c3)=NN2C(=O)CN2CCC3(CC2)OCCO3)c(OC)c1 (stereo not given)	0	9
O=C(O)c1ccc2c(c1NCCO)C(=O)c1ccccc1C2=O	-2	-5
Clc1ccc(-c2cn3cccnc3n2)cc1	0	3
O=C(CCC1CCN(C(=O)C2CCCO2)CC1)NCc1cccc(C(F)(F)F)c1 (stereo not given)	6	4
COc1ccc(CC2CN(C(=O)Cc3cnc(C)[nH]c3=O)CCO2)cc1 (stereo not given)	-3	-7
c1cncc(CN2CCN(c3cc(-c4cnc5ccccc5c4)nc4ccnn34)CC2)c1	-4	-11

Molecules above that have a cyano group (two):
SMILES	NPYLR7 ag	NPYLR7 ag max-min
Cc1cccc(C)c1OCCN(C1CC1)S(=O)(=O)c1ccc(C#N)cc1	12	6
Cc1cc(C(=O)Nc2ccn(CCC#N)n2)nn1-c1ccccc1	8	6

Next entries follow.
SMILES	NPYLR7 ag	NPYLR7 ag max-min
O=C(NCC1CCCN(Cc2ccc(-c3ccco3)cc2)C1)c1cccnc1 (stereo not given)	4	4
CCC1=NN(C(=O)c2cccnc2)C(O)(c2ccccc2)C1 (stereo not given)	16	10
O=C(CCN(c1nc(-c2ccco2)nc2ccccc12)C1CCCCC1)NC1CC1	-5	6
O=C1NC(=S)N/C1=C/c1cccc(OCc2ccccc2F)c1	-6	-10
Cc1ccc(Cn2c(C)c(C(=O)NCc3cccc([N+](=O)[O-])c3)sc2=O)cc1	-8	-7
O=C(NC1CCCCC1)N1CC[C@@]2(C1)[C@@H](O)CN(c1ccccc1)S2(=O)=O	5	17
O=C(CN1CCN(S(=O)(=O)c2ccc(Cl)cc2)CC1)NC1CCCCC1	3	0
CC(C)c1noc(CCn2ccnc2-c2ncc[nH]2)n1	16	6
COC1CCN(C(=O)CC2C(=O)NCCN2CC(c2ccccc2)c2ccccc2)CC1 (stereo not given)	15	2
Cc1c(N=Cc2ccc(Cl)cc2Cl)c(=O)n(-c2ccccc2)n1C	-4	-10
Cc1ccc(-c2csc(NC(=O)C3C4CCC(C4)C3C(=O)O)n2)cc1 (stereo not given)	-3	-8
Oc1ccc(N=Nc2ccc3c(c2)OCCO3)c2cccnc12	1	3
O=C(O)c1nc(C2CC2)n(-c2ccccc2Cl)n1	4	-1

Shown with two lines to a compound: 3 of the compounds above
Below each SMILES: NPYLR7 ag	NPYLR7 ag max-min
COc1ccc(NC(=O)CNC(=O)CN(C(=O)c2cccc(OC)c2)C2CCCCC2)cc1
  -12	-13
NS(=O)(=O)c1ccc(C(=O)NCCn2ncccc2=O)cc1
  5	1
O=S(=O)(c1ccc(O)cc1)c1ccc(Cl)cc1
  10&2	4&4

An excerpt (hit frequency here may not be typical).
